HPGD inh: HPGD (human) dehydrogenase inhibition | 150,000 compounds, 4.3% hits | purified HPGD, NADH fluorescence kinetic, PGE2 substrate | P15428 | Potency, µM, inactives show top-dose activity change, negative = inhibition, actives largely listed as inhibitors | AID 894; active = well fitted inhibition curve with a large enough effect (not every such curve was filed as active); inconclusive = small, poorly fitted or top-dose-only effect, or another doubt; inactive = no such curve, though single readings can be large or run the other way;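 further: top concentration of the series not given in the record; plate controls included wells without enzyme; inactives centre near -10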
Target sequence (P15428 whole entry, looked up): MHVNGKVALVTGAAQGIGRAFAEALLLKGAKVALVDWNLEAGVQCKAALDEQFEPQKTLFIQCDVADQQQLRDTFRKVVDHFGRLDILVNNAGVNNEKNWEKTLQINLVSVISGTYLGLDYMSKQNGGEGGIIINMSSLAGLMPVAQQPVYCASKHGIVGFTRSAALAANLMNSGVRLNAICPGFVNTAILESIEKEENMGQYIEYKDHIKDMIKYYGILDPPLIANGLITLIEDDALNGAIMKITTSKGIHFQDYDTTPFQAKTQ
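NADH formation kinetics: reaction with 30 uM PGE2 and 1 mM NAD+ (final), 20 nM enzyme, Tris-HCl pH 8 with Tween 20, after 15 min compound preincubation at room temperature. Fluorescence change, last versus first of five reads.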
* = called active by the depositor; ? = inconclusive; & = joins results of further samples. On the % scale 0 is the no-effect control and ±100 the full control effect; potency means the concentration at half of the fitted maximal effect.

HPGD inh | Compound
-11% | Cc1ccc2c(c1)nnn2C1CCN(CC(=O)N2c3ccccc3CC2C)CC1 (stereo not drawn)
-7% | O=C1Nc2ccccc2C12OCCCCO2
-1% | CCCNS(=O)(=O)c1ccc(CCC(=O)NCc2cccnc2)cc1
-2% | CN(c1ccc([N+](=O)[O-])cc1C(=O)Nc1ccccc1)C1CCCCC1
-12% | c1ccc(-c2ccc(-c3csnn3)cc2)cc1
-5% | CC(C)NCC(O)COCCOc1ccc(Br)cc1 (stereo not drawn)
-18% | COC(=O)c1cc(-c2c[nH]c3ccccc23)n[nH]1
-21% | CCC(C(=O)N1CCN(c2ccccn2)CC1)n1nc(C)n2c(cc3occc32)c1=O (stereo not drawn)
-9% | CCOC(=O)N1CCN(C(=O)C(CC)n2nc(C)c3sc4ccccc4c3c2=O)CC1 (stereo not drawn)
18µM* | CN(C)C(=O)c1ccc(NC(=O)c2ccccc2Sc2ccccc2C#N)cc1
? | Cc1c(C(=O)Nc2ccc(Cl)cc2)c2ccccn2c1CCc1ccncc1
-22% | O=C(O)CCc1ccc(-c2ccc(Br)cc2)n1CC(=O)O
-30% | COc1ccc(S(=O)(=O)Nc2ccc(Cl)cn2)c(C)c1C
-14% | Cc1ccc(C)c(N2CCN(C(=O)c3ccc(NS(=O)(=O)c4c(C)noc4C)cc3)CC2)c1
-4% | CCOC(=O)C1CCN(c2nc(C)nc3c2oc2ccccc23)CC1

Rewritten with each value named: part of the list above.
CC(C)NCC(O)COCCOc1ccc(Br)cc1 (stereo not drawn)
  HPGD inh: -5%
CCCNS(=O)(=O)c1ccc(CCC(=O)NCc2cccnc2)cc1
  HPGD inh: -1%
CCC(C(=O)N1CCN(c2ccccn2)CC1)n1nc(C)n2c(cc3occc32)c1=O (stereo not drawn)
  HPGD inh: -21%

Additional structures:
HPGD inh | Compound
-8% | COc1ccc(S(=O)(=O)Nc2ccc(S(=O)(=O)N(C)C)cc2)cc1[N+](=O)[O-]
-21% | CCOC(=O)c1c(NC(=O)CSc2nc3cccnc3n2C)sc(C(C)=O)c1C
-18% | COc1ccc(-c2noc(-c3ccc(Cl)cc3)n2)cc1
28µM* | Cc1ccc(C(=O)NC=C(Cl)Cl)cc1
-3% | CC(=O)c1ccc(OCC(O)Cn2nnc3ccccc32)cc1 (stereo not drawn)
-17% | COc1ccc(C2=CC(c3cc(OC)c(OC)c(OC)c3)NC(=S)N2)cc1 (stereo not drawn)
-5% | CCOc1cc(S(=O)(=O)NCc2ccc3c(c2)OCO3)ccc1F
? | COc1ccc(OC)c(N2CC(O)=C(c3nc4ccccc4s3)C2=N)c1
-25% | CC1CCN=C(N)S1 (stereo not drawn)
-11%&-11% | CC(C)CC1(C(=O)NCCc2c[nH]c3ccccc23)C=CCN1C(=O)c1ccccc1 (stereo not drawn)
-18% | Cc1cccc(C)c1NC(=O)CCCSc1nnc(-c2ccco2)n1-c1ccccc1
? | CCOC(=O)Cn1nnnc1C(CC)N(Cc1cccs1)Cc1cc2cc(C)ccc2[nH]c1=O (stereo not drawn)
-8% | Cc1cccc(C)c1OCC(=O)N1CC2(C)CC1CC(C)(C)C2 (stereo not drawn)
-4% | NC(N)=NS(=O)(=O)c1ccc(NC(=S)NC(=O)/C=C/c2ccco2)cc1
-15% | O=C1CC(c2ccccc2)CC(O)=C1C=NCCN1CCN(C(=S)Nc2cccc(Cl)c2)CC1 (stereo not drawn)
-14% | Cc1onc(-c2ccccc2Cl)c1C(=O)Nc1nnc(-c2cccc([N+](=O)[O-])c2)s1
-13% | CC(C)(C)c1ccc(-c2csc(NNC3=NCCCCC3)n2)cc1
-3% | O=C1c2cccc(O)c2C(=O)c2c(O[C@@H]3O[C@H](CO)[C@@H](O)[C@H](O)[C@@H]3O)cccc21
? | FC(F)(F)c1nc(-c2cccs2)ncc1-c1nnnn1-c1ccc(Cl)cc1
-18% | COC(=O)C(C)(C)ONC(=O)Nc1ccc(C)cc1
? | Cc1ccc(-c2nnc(SCC#N)n2N)cc1
-7% | Cc1ccc(C(=O)CC(Nc2ccc(F)cc2)c2ccccc2)cc1 (stereo not drawn)
-12% | COC(=O)[C@H](COC(C)(C)C)NC(=O)O[C@H]1C(=O)c2cc(OC)ccc2O[C@@H]1c1ccc(OC)c(Br)c1
-11% | CSc1nsc(SCC(=O)Nc2cccc(C(C)=O)c2)n1
1% | CCOC(=O)c1cc(NC(=O)N2CCOCC2)c(C)nc1C
-27% | c1coc(CNc2nc3nonc3nc2NCc2ccco2)c1
? | CC(C)n1cc(/C=N\NC(=O)c2cc3c(ccc4ccccc43)o2)c2ccccc21
? | CCC(=O)N(CCO)Cc1cc2ccc(C)c(C)c2[nH]c1=O
? | N#Cc1cnc(SCC(=O)Nc2ccccc2C(F)(F)F)nc1N
-9% | CCC(C)NC(=O)CSc1nc2ccsc2c(=O)n1-c1ccc(OC)cc1 (stereo not drawn)
-1% | COC(=O)CCCCC(=O)OC
-16% | C/C(N)=C(/C#N)C(=O)COC(=O)CCSc1ccccc1
-10% | CCc1cccc(C)c1NC(=O)CN(C)Cc1ccccc1F
-14% | O=C(NC1CCCCC1)NC1CCN(CC(=O)N2CCOCC2)CC1
-13% | NC(=O)c1ccsc1NC(=O)CN1C(=O)C2CC=CCC2C1=O (stereo not drawn)
-26% | CCCOC(=O)c1ccc(-c2c(C)noc2-c2ccc(OC)cc2O)o1
-1% | Cc1ccc(NC(=O)CN2C(=O)C(C)Oc3ccccc32)nc1 (stereo not drawn)
-16% | CCC(=O)NC(=S)Nc1ccc(NC(=O)c2ccc([N+](=O)[O-])cc2)cc1
? | CCOC(=O)c1ccc(-c2ccc(/C=N/NC(=O)CN(c3ccccc3Cl)S(C)(=O)=O)o2)cc1
-13% | Cc1sc2nc(SCc3ccccc3)n(Cc3ccco3)c(=O)c2c1C
-9% | COc1ccc(-c2nnc(SCC(=O)NCc3cccs3)n2CC(C)C)cc1
-19% | COc1ccccc1NC(=O)C1=C(C)Nc2nnnn2C1c1cccc(Br)c1 (stereo not drawn)
-14% | COc1cccc(C(=O)N2N=C(c3ccccc3)CC2(O)C(F)(F)F)c1 (stereo not drawn)
-8% | COc1ccc(CCNC(=O)c2ccc(-c3ccc([N+](=O)[O-])cc3)o2)cc1OC
-1% | O=C(CN1CCN(Cc2ccc3c(c2)OCO3)CC1)c1c[nH]c2ccccc12

Another view of 2 compounds above:
SMILES,HPGD inh
COC(=O)CCCCC(=O)OC,-1%
C/C(N)=C(/C#N)C(=O)COC(=O)CCSc1ccccc1,-16%

Next results
HPGD inh | Compound
-10% | COc1cc(C(O)C(=O)O)ccc1O (stereo not drawn)
-17% | Cc1ccc(C(=O)N/C(=C\c2ccccc2)C(=O)NCC2CCCO2)cc1 (stereo not drawn)
-17% | COc1ccc2c(c1)c(CC(=O)O)c(C)n2Cc1ccc(Cl)cc1
-7% | CCCCOCCOCCSC#N
-13% | COc1ccc(OC)c(C(=O)CSc2nc3cccnc3n2C)c1
-1% | CC1(C)CC(=O)C=C(NCCN2CCN(C(=O)Nc3ccc(Cl)cc3)CC2)C1
-14% | CCOc1ccc(S(=O)(=O)N2Cc3ccccc3CC2C(=O)NCCCn2ccnc2)cc1 (stereo not drawn)
-19% | CCOC(=O)N1CCN(c2ccc([N+](=O)[O-])cc2)CC1
-7% | Cc1csc2cc(-c3cccc([N+](=O)[O-])c3)c(-c3cccc([N+](=O)[O-])c3)c[n+]12
-9% | COc1cccc(-n2nc(C(=O)Nc3ccc4c(c3)OCO4)c3ccccc3c2=O)c1
2% | CCn1c(N)nc2c1c(=O)n(C)c(=O)n2C
-17% | COc1cccc(-n2c(CCn3nc(C)c([N+](=O)[O-])c3C)n[nH]c2=S)c1
-14% | C/C(=N\NC(=O)CNc1cccc(C(F)(F)F)c1)c1ccc(Br)cc1
-1% | CC1CCCC(C(=O)O)N1C(=O)CCSSCCC(=O)N1C(C)CCCC1C(=O)O (stereo not drawn)
-10% | Cc1cc(C(F)(F)F)n2nc(-c3cnn(C)c3C(F)(F)F)c(Cl)c2n1
? | Cc1csc(-c2coc3cc(O[C@@H]4O[C@H](CO)[C@@H](O)[C@@H](O)[C@H]4O)ccc3c2=O)n1
-8% | CC(C)(C)n1nnnc1C(c1cccnc1)N1CCN(C(=O)c2ccco2)CC1 (stereo not drawn)
-16% | COC(=O)/C=C(\C)NC(=O)c1ccccc1Cl
-5% | O=C(Cn1nnc(-c2ccccc2F)n1)Nc1cccc2ncccc12
-10% | Nc1ccc(N2CCN(c3cccc(Cl)c3)CC2)cc1
-22% | COc1cc2c(c(OC)c1OC)C(c1ccc3c(c1)OCO3)CC(=O)O2 (stereo not drawn)
-10% | CN(C)CCCN(CCCNC(=O)/C=N/O)Cc1ccccc1
-9% | CC(C)c1ccc(C(=O)CC2(O)C(=O)N(CN3CCOCC3)c3ccccc32)cc1 (stereo not drawn)
-26% | COCCOC(=O)/C(=C/c1ccc(OC(=O)c2ccccc2)cc1)C(C)=O
-8% | COc1ccc(CCN2C(=O)CCC2(C)C(=O)NCc2cccnc2)cc1OC (stereo not drawn)
-6% | CCOC(=O)C(C)N1C(=O)S/C(=C/c2cc(C)n(-c3ccccn3)c2C)C1=O (stereo not drawn)
-28% | Cc1cc(C)n(-c2nc3sc4c(c3c3nnc(SCC(N)=O)n23)CC(C)(C)OC4)n1
? | N#CCSc1nc2ccc(N3CCOCC3)cc2c(=O)n1CCc1ccccc1
-8% | CC1(C)Cc2cccc(OCC(O)CNCc3ccccn3)c2O1 (stereo not drawn)
2% | CC(C)(C)C(=O)NC1(C(F)(F)F)C(=O)Nc2c1c(=O)[nH]c(=O)n2Cc1ccco1 (stereo not drawn)
? | COc1cc(C2Nc3ccccc3C(=O)N2c2ccccc2OC)ccc1O (stereo not drawn)
-7% | O=C(CN1CCN(C(=O)c2ccccc2)CC1)Nc1ccc(Br)cn1
1% | O=C(NCCCN1CCOCC1)C1(c2ccccc2)CCCC1
-14% | CC(C)c1cc(C(C)C)c(S(=O)(=O)NNC(=O)c2ccncc2)c(C(C)C)c1
2% | Cc1c(Cl)cccc1NC(=O)COC(=O)c1c2c(nc3ccccc13)CCN(Cc1ccccc1)C2
-5% | COc1cc(C)nc(OCCNS(=O)(=O)c2cc(C)ccc2C)n1
0% | COc1ccc(/C=N/NC(=O)c2ccoc2C)cc1COc1c(C)cccc1C
-12% | O=C(Nc1ccccc1)/C(=C/c1ccc2c(c1)OCO2)NC(=O)c1ccco1
-16% | Cc1cc(-c2nnc(SCc3ccccn3)o2)no1
28µM* | O=c1cc(N2CCc3ccccc32)[nH]c(=O)n1-c1ccc(Br)cc1
-13% | CCC(CO)n1c(SCc2cc([N+](=O)[O-])cc3c2OCOC3)nc2ccccc2c1=O (stereo not drawn)
? | O=C(NCc1ccco1)c1ccc(COc2cccc3ccccc23)cc1
-5% | O=C(/C=C/c1ccccc1)N1CCN(CCN2C(=O)c3cccc4cccc(c34)C2=O)CC1
? | Cc1cccn2c(=O)c(C=Nc3ccc(Cl)cc3)c(NCCO)nc12
-14% | Cc1cc(C)cc(NC(=O)CN2CCN(c3ncccn3)CC2)c1
-5% | COC(=O)c1ccc(C)c(NC(=O)c2ccc(Cl)c([N+](=O)[O-])c2)c1
-16% | O=C(NC1CCCCCC1)c1ccc2c(=O)n3c(nc2c1)CCCCC3
? | COCc1cc(C)n(CC(=O)Nc2ccc(Cl)cc2Cl)c(=O)c1C#N
-9% | CC1(C)CC(=O)C(C=NCCN2CCN(C(=O)NC34CC5CC(CC(C5)C3)C4)CC2)=C(O)C1
0% | CCOC(=O)N1CCN(C(=S)Nc2ccc(C)c(C)c2)CC1
-14% | CCCOC(=O)c1c(N)sc(C(=O)OCC)c1C
-9% | COc1ccccc1NC(=S)NCc1ccc2c(c1)OCO2
-27% | Oc1csc(Cc2nc(-c3ccc(-c4ccccc4)cc3)cs2)n1
-18% | O=c1c2c(nc3nc(Cc4ccccc4)[nH]n13)CCC2
-25% | CCOc1ccc2nc(NC(=O)CS(=O)(=O)c3ccccc3)sc2c1
-6% | O=C1c2ccc3c4c(ccc(c24)C(=O)N1Cc1cccnc1)C(=O)N(Cc1cccnc1)C3=O
-7% | Cc1ccc(NC2CC(=O)N(Cc3ccccc3)C2=O)cc1 (stereo not drawn)
? | Cc1[nH]c2ccccc2c1Cc1nnc(SCC(=O)NCc2ccco2)o1
-22% | CCOC(=O)c1c(C)[nH]c(C(=O)C(C)OC(=O)c2oc3ccccc3c2COC)c1C (stereo not drawn)
-2% | COCCCNC(=O)CCn1c(=O)c2ccccc2n(CC(=O)Nc2ccccc2C)c1=O

Entries listed above printed as active in HPGD inh.
HPGD inh | Compound
18µM* | CN(C)C(=O)c1ccc(NC(=O)c2ccccc2Sc2ccccc2C#N)cc1
28µM* | Cc1ccc(C(=O)NC=C(Cl)Cl)cc1
28µM* | O=c1cc(N2CCc3ccccc32)[nH]c(=O)n1-c1ccc(Br)cc1

(cont.)
HPGD inh | Compound
-4% | COc1cccc(CNC(=O)C2CCCN(c3nn4c(=O)cc(C)nc4s3)C2)c1OC (stereo not drawn)
7.1µM* | CCCCCCC(=O)N(O)C1CC(=O)N(c2ccc(Br)cc2)C1=O (stereo not drawn)
-8% | C#CCn1c(S(=O)(=O)Cc2ccc(OC)cc2)nc(-c2ccccc2)c1-c1ccccc1
-8% | CS(=O)(=O)N1CCN(Cc2ccccc2C(F)(F)F)CC1
-12% | Cc1ccc(Nc2nc(CSc3nnc(-c4cccnc4)n3-c3ccccc3F)cs2)cc1
-21% | COc1cccc(/C=N/NC(=O)c2cc(-c3cccn3C)n[nH]2)c1
-2% | CC(CCc1ccc(O)cc1)NC1C2CC3CC(C2)CC1C3 (stereo not drawn)
-1% | COc1ccc(/C=N/NC(=O)Cn2nc(C)c([N+](=O)[O-])c2C)cc1

Only part of the results is shown, so the mix of outcomes need not match the whole.
